HSV augment: enhancers of HSV replication in host cells, fold increase, host cell viability | HSV replication augmentation in cells | maximum fold increase | 220,000 compounds, 0.005% hits;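 active = peak rise of 1.5-fold or more in the series; tested in PC3 cells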;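 note: first round at 10 µM; read as green reporter fluorescence; hits show the peak of a series up to 25 µM; 1 = signal of infected wells without compound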
RGS16-Gao HTS: modulators of RGS16 binding to Galphao, primary screen, biochemical, human proteins, multiplexed bead flow cytometry; Regulator of G-protein signaling 16 (Homo sapiens) + Guanine nucleotide-binding protein …; bead-based flow cytometry RGS16-Galphao binding, fluorescence; actives lie on both sides; binding response (% of control), % at 10 µM; 220,000 compounds, 0.38% hits; AID 1441, 2008;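 active = below 25% or above 175%, edge rows of some plates excepted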;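 note: Galphao activated by GDP with aluminum fluoride before binding; 100% = wells without compound and 0% = beads without RGS; some results beyond the cut were filed as inactive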
Target sequence (O15492 whole entry, looked up): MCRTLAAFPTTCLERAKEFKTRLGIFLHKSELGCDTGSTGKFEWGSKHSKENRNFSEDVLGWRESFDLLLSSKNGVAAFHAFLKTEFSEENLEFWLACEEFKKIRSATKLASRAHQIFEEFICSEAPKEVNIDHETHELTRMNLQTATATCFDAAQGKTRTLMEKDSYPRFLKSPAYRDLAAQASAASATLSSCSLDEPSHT
Target sequence (P09471 whole entry, looked up): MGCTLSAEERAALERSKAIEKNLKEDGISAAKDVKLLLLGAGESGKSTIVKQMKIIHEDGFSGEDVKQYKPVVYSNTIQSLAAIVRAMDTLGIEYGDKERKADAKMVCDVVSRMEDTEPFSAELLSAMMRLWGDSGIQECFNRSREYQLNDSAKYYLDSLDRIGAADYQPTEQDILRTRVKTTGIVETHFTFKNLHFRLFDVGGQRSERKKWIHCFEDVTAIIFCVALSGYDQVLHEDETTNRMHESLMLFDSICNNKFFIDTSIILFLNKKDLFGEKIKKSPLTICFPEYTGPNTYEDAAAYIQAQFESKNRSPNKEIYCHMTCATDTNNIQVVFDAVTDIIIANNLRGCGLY
PKD1 inh: inhibitors of human PKD1 kinase, biochemical, fluorescence polarization. Serine/threonine-protein kinase D1 (Homo sapiens), Q15139. PKD1 kinase fluorescence polarization assay. inhibition, %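 (about 10 µM by stock and volumes)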. 200,000 compounds, 0.056% hits. AID 797, 2007;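 active = inhibition of 50% or more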;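 note: controls were vehicle for no effect and a reference inhibitor for full effect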
GALR2 ag: GALR2 receptor agonists, primary screen, cell-based | GALR2-expressing cells, agonist activation read-out | activation, %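 (tested at 5 µM)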 | AID 803, 2007 | 140,000 compounds, 0.48% hits | Galanin receptor type 2 (Homo sapiens), O43603;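 active = above mean plus 3 SD of all compounds, about 5% in these data, not always enough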;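 note: 0% = vehicle buffer wells and 100% = reference agonist at full effect; tested in CHO reporter cells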
Target sequence (O43603 whole entry, looked up): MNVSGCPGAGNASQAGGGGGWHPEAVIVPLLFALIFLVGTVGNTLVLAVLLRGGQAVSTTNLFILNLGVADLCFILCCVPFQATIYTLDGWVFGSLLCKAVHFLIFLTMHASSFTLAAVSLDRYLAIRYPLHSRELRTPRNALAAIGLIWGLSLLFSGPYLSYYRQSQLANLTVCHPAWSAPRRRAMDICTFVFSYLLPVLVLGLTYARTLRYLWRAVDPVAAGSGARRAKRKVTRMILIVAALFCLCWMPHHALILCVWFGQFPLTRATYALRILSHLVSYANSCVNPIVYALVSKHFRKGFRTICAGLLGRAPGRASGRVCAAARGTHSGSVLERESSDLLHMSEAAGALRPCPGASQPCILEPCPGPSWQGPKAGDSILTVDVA
INS promoter inh: inhibitors of insulin promoter-driven GFP, primary screen, imaging, TRM-6 cells (human fetal islet line), eGFP reporter, cell count. reporter expression induced with tamoxifen. inhibition, % at 2 µM. 130,000 compounds, 0.9% hits;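 active = inhibition above the mean plus 3 SD, with well images judged a real hit on visual review, cut at about 60% in these data, passing the limit was not always enough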
INS promoter inh cell count: further read-out of INS promoter inh, marked with its call; normalized cell count, %; measured here: cell count, toxicity; reference of the scale not given here;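 cells exposed to compound for 48 h; stained nuclei by imaging scaled within each plate; lower means fewer cells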
HSV augment primary fold: recorded beside HSV augment, whose call it bears; fold increase; compound at 10 µM; measured here: primary screen fold increase 10 uM; tested in PC3 cells;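 GFP signal in the first replicate; 1 = infected wells without compound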
Starred values were filed as active, the others as inactive; i = inactive; nt = not tested or not shown.

compound,INS promoter inh cell count,INS promoter inh,RGS16-Gao HTS,GALR2 ag,PKD1 inh,HSV augment primary fold,HSV augment
CCOc1ccc(C(=O)Nc2c3c(nn2-c2ccc(F)cc2)CS(=O)C3)cc1 (stereo unspecified),nt,nt,105.5,-1.0,-1.8,0.993,i
CN1CCN(S(=O)(=O)c2ccc(Cc3ccc(S(=O)(=O)N4CCN(C)CC4)cc3)cc2)CC1,nt,nt,93.6,-0.1,-8.6,0.9,i
O=C(NC1(C(F)(F)F)OCCO1)c1ccc(F)cc1,nt,nt,99.8,nt,-1.6,0.98,i
CN1C(=O)C(O)(CC(=O)c2ccccc2O)c2cc(Br)ccc21 (stereo unspecified),nt,nt,251.7,-0.4,-14.6,1.09,i
OCC(O)C(O)C(O)C(O)c1nc2ccccc2[nH]1 (stereo unspecified),nt,nt,94.8,nt,-3.5,0.92,i
CCOC(=O)c1cc(-c2ccccc2)sc1NC(=O)CSc1nnc(N)s1,nt,nt,98.4,nt,10.7,1.04,i
COC(=O)CCCC1=CC2=C(c3ccccc3)C(=O)C(C)(OC(=O)C3CCCC3)C(=O)C2=CN1CCN1CCOCC1 (stereo unspecified),nt,nt,104.5,nt,nt,0.91,i
Cc1cc(=O)oc(C)c1C(=O)Nc1ccc(N(C)C)cc1,nt,nt,102.5,nt,nt,1.23,i
COc1ccc(CCC(=O)Nc2cc(Cl)ccc2N2CCN(C)CC2)cc1,101.3,14.7,103.2,-1.2,-3.4,1,i
CCOC(=O)N1CCN(C(=O)CSc2nnc(-c3cc(OC)cc(OC)c3)o2)CC1,56.9,10.5,102.4,0.0,-3.7,1.08,i
O=C(CC(c1ccco1)S(=O)(=O)c1ccccc1)c1ccc(F)cc1 (stereo unspecified),nt,nt,35.0,-0.6,-11.0,1.1,i
O=C(Nc1ccc(NC(=O)c2ccco2)c(Cl)c1)c1ccc2c(c1)OCCO2,nt,nt,96.9,nt,nt,0.83,i
CC(=O)CC(=O)Nc1cccc2c1CCCC2,nt,nt,102.7,0.9,8.5,1.04,i
Cn1c(=O)cc(OCCCC(=O)N2CCN(c3ccccc3)CC2)c2ccccc21,nt,nt,101.9,-0.1,3.3,nt,nt
CCn1ccnc1CN(C)Cc1cn(-c2ccc(C)cc2)nc1-c1ccc(F)cc1,110.8,10.0,108.6,nt,3.1,0.84,i
CC(=O)Nc1ccc2nc(NC(=O)COc3ccc([N+](=O)[O-])cc3)sc2c1,nt,nt,103.6,nt,-3.6,0.93,i
Cc1cc2c(c(=O)n1Cc1cccnc1)C(Cc1ccccc1)C(C#N)=C(N)O2 (stereo unspecified),168.8,-38.5,101.1,-1.0,-4.4,1,i
O=[N+]([O-])c1cc(-c2n(-c3ccccn3)c3ccccc3[n+]2-c2ccccn2)ccc1Cl,92.0,-91.7,104.9,nt,-8.0,0.97,i
O=C(CN1CCC(c2nc3ccccc3s2)CC1)N1CCCCC1,nt,nt,108.9,nt,-4.9,1.01,i
O=C(O)C1CCCN1c1ncnc2c1oc1ccccc12 (stereo unspecified),167.4,19.4,97.7,-1.8,-4.0,0.94,i
Cn1c(=O)c2c(ncn2CC(O)CNc2cccc(Cl)c2)n(C)c1=O (stereo unspecified),121.8,-6.7,98.8,nt,-4.5,0.95,i
COC(=O)c1c(-n2c(C)cc(C=O)c2C)sc2c1CCCC2,nt,nt,123.0,-1.8,6.8,0.77,i
Cc1cccc(NC2(C(F)(F)F)N=C(c3ccccc3)NC2=O)n1 (stereo unspecified),120.8,16.7,95.0,-2.4,-0.6,0.99,i
Nc1nc2sc3c(c2cc1C(=O)N1CCOCC1)CCCC3,100.2,-46.7,102.5,-3.8,5.7,0.95,i
CCSC1=NCCN1S(=O)(=O)c1ccc(F)cc1,nt,nt,100.6,nt,-0.4,nt,nt
CC(=O)Nc1ccc(CN2CCc3c([nH]c4ccccc34)C2c2ccccn2)cc1 (stereo unspecified),46.6,17.4,99.2,nt,-6.7,0.92,i
COc1ccc(/C=N/NC(=O)C2C(C=C(Cl)Cl)C2(C)C)c(OC)c1 (stereo unspecified),103.0,35.3,96.8,nt,-4.9,0.98,i
Cc1ccc2nc(C)cc(OCC(=O)O)c2c1,nt,nt,99.6,-0.4,-14.8,0.8,i
COc1ccc(-c2ccc(CNCCCN3CCOCC3)o2)cc1Cl,104.1,-73.7,98.4,nt,-6.0,0.93,i
CCC(C)(C)NC(=O)c1ccc(Br)o1,132.4,26.7,99.4,-1.3,-5.2,0.97,i
CCn1cc(S(=O)(=O)CC(=O)Nc2cccc(C)c2)c2ccccc21,nt,nt,100.0,nt,nt,0.96,i
CC(C)C/C(O)=C/c1nc2cc(Cl)ccc2oc1=O,85.0,14.3,99.6,-3.8,-15.5,0.81,i
COc1cccc(N=CC2=C(O)CCCC2=O)c1,129.5,23.1,96.9,nt,-3.2,0.82,i
O=C(Nc1ccncc1)c1ccccc1F,116.7,-16.1,102.8,-1.3,-3.9,1.11,i
c1csc(-c2nnc(COc3ncnc4sccc34)o2)c1,nt,nt,103.5,nt,nt,1.27,i
COc1ccc(NC(=O)/C=C/C(=O)O)c(OC)c1,nt,nt,100.3,nt,nt,1,i
O=C(CSCc1ccc(F)cc1)Nc1nc2c(s1)CCCC2,84.2,-32.6,101.2,-2.7,6.3,0.91,i
C=CCNC(=O)C1CC(=O)N(c2ccc(OCC(=O)Nc3ccc(C)cc3)cc2)C1 (stereo unspecified),nt,nt,97.4,-1.0,-7.1,1.01,i
CCSc1ccccc1C(=O)N1CCCC1,57.3,10.3,42.5,-1.1,-3.7,0.89,i
CCc1cccc(CC)c1NC(=O)COC(=O)CCc1cc(OC)c(OC)c(OC)c1,nt,nt,102.8,0.2,-15.1,0.92,i
CC(=O)CC(=O)Nc1nc(C)cc(C)n1,nt,nt,106.9,nt,-9.1,1.02,i
CC(C)(C)C(=O)O/N=C(\N)COc1cccc(Cl)c1,nt,nt,95.5,nt,nt,0.94,i
Cc1cc(NC(=O)CCCC(=O)OCC(F)(F)C(F)F)cc(C)c1C(=O)O,122.8,14.3,101.2,-1.6,-6.2,1.05,i
COc1ccc(OC)c(NC(=O)N[C@@H](Cc2ccccc2)C(=O)O)c1,131.8,21.4,101.3,-0.5,5.4,0.91,i
Cn1c(=O)c2c(nc(OCc3cccnc3)n2Cc2ccccc2)n(C)c1=O,125.6,-38.9,106.4,-0.7,0.5,0.87,i
Oc1ccccc1CNCCCNCc1ccccc1O,135.1,-32.5,90.6,-1.6,-12.8,1.02,i
CCC1=NN2C(=N)/C(=C\c3cccn3-c3ccc(C)cc3C)C(=O)N=C2S1,79.4,33.3,64.4,nt,-3.4,0.95,i
Cc1cccc(Nc2nc(N)nc(CN3CCN(c4ccccc4)CC3)n2)c1,nt,nt,108.3,-2.2,-2.2,0.92,i
Cc1cc(C)n(NC(=S)NC2CCCC2)c(=O)c1C#N,nt,nt,96.7,nt,nt,0.95,i
COC(=O)c1cc(C(=O)OCC(=O)Nc2cc(C)on2)cc([N+](=O)[O-])c1,nt,nt,104.5,nt,nt,1.04,i
CN1CCN(C(=O)C2=C[C@H](C(C)(C)C)C[C@H](OCCCCO)O2)CC1,nt,nt,104.0,nt,-5.3,1.02,i
CCc1ccc(NS(=O)(=O)c2ccc3[nH]cc(C(=O)N4CCc5ccccc54)c(=O)c3c2)cc1,92.4,-11.1,104.9,0.6,2.9,0.92,i
Cn1nc(-c2ccc(C(=O)N3CCN(Cc4ccccc4)CC3)cc2)c2ccccc2c1=O,113.2,0.0,100.5,0.9,1.8,0.98,i
Cn1c(SCc2ccc(Cl)cc2)nnc1C1CC1,84.2,0.0,103.5,nt,-2.9,0.97,i
O=C(NCC(O)COc1ccc([N+](=O)[O-])cc1)c1ccccc1 (stereo unspecified),nt,nt,99.0,nt,nt,0.84,i
CNC(=O)c1nnn(-c2ccccc2)c1C(=O)NC,107.5,25.0,73.1,-0.7,2.9,0.87,i
O=C(O)c1ccc(C2SCC(=O)N2Cc2ccco2)cc1 (stereo unspecified),nt,nt,102.0,nt,-10.8,1.05,i
COc1cccc(C(=O)Nc2cc([N+](=O)[O-])ccc2N2CCN(C)CC2)c1,nt,nt,115.3,-1.6,-1.5,0.97,i
O=S(=O)(c1cnc[nH]1)N1CCN(c2ccccc2)CC1,nt,nt,101.8,-3.4,-8.7,1.02,i
O=C(Cc1ccccc1)Nc1ccc(CN2CCOCC2)cc1,147.4,-5.9,101.3,-0.2,2.6,0.96,i

Laid out differently: results already given
Screens in order: INS promoter inh cell count, INS promoter inh, RGS16-Gao HTS, GALR2 ag, PKD1 inh, HSV augment primary fold, HSV augment
CN1CCN(C(=O)C2=C[C@H](C(C)(C)C)C[C@H](OCCCCO)O2)CC1
  nt, nt, 104.0, nt, -5.3, 1.02, i
CCc1ccc(NS(=O)(=O)c2ccc3[nH]cc(C(=O)N4CCc5ccccc54)c(=O)c3c2)cc1
  92.4, -11.1, 104.9, 0.6, 2.9, 0.92, i
Cn1nc(-c2ccc(C(=O)N3CCN(Cc4ccccc4)CC3)cc2)c2ccccc2c1=O
  113.2, 0.0, 100.5, 0.9, 1.8, 0.98, i
Cn1c(SCc2ccc(Cl)cc2)nnc1C1CC1
  84.2, 0.0, 103.5, nt, -2.9, 0.97, i
O=C(NCC(O)COc1ccc([N+](=O)[O-])cc1)c1ccccc1 (stereo unspecified)
  nt, nt, 99.0, nt, nt, 0.84, i
CNC(=O)c1nnn(-c2ccccc2)c1C(=O)NC
  107.5, 25.0, 73.1, -0.7, 2.9, 0.87, i
O=C(O)c1ccc(C2SCC(=O)N2Cc2ccco2)cc1 (stereo unspecified)
  nt, nt, 102.0, nt, -10.8, 1.05, i
COc1cccc(C(=O)Nc2cc([N+](=O)[O-])ccc2N2CCN(C)CC2)c1
  nt, nt, 115.3, -1.6, -1.5, 0.97, i
O=S(=O)(c1cnc[nH]1)N1CCN(c2ccccc2)CC1
  nt, nt, 101.8, -3.4, -8.7, 1.02, i
O=C(Cc1ccccc1)Nc1ccc(CN2CCOCC2)cc1
  147.4, -5.9, 101.3, -0.2, 2.6, 0.96, i

Additional records follow:
compound,INS promoter inh cell count,INS promoter inh,RGS16-Gao HTS,GALR2 ag,PKD1 inh,HSV augment primary fold,HSV augment
CCc1ccc(NC(=S)NC2CC3CCC(C2)N3Cc2ccco2)cc1 (stereo unspecified),50.8,-27.3,106.9,-0.4,6.9,1.04,i
CCOC(=O)C1=C(O)/C(=C/c2ccc(OCC(=O)O)c(OC)c2)SC1=Nc1ccc(OCC)cc1,118.1,10.3,103.9,-0.2,0.5,1,i
O=C(Nc1ccccc1)/C(=C/c1cccc(Br)c1)NC(=O)c1ccco1,88.3,2.9,94.2,-0.9,5.0,1.02,i
COCCn1c(-c2ccc(OC)cc2)nc2oc3cc(OC)ccc3c(=O)c2c1=O,136.6,61.1,107.5,-1.1,-7.5,0.99,i
Cc1cc(C)cc(OCC(=O)NC2=NCCS2)c1,102.5,7.7,109.4,-0.5,-3.8,0.96,i
CCCCc1c(C)nc(N2CCCC2)[nH]c1=O,nt,nt,93.3,nt,nt,1.28,i
S=c1[nH]nc(-c2cccnc2)n1Cc1ccccc1,68.9,0.0,101.9,-0.5,-6.7,1.03,i
N#CCSc1nnc(Nc2ccccc2)s1,83.4,5.4,58.1,-0.9,2.4,0.67,i
COc1cccc(S(=O)(=O)Nc2ccc(C(=O)Nc3ccncc3)cc2)c1,50.3,14.3,145.9,-1.3,-8.1,1,i
C#CCOCCOCCOCCNc1nc(N2CCN(C(=O)[C@H](CCC(=O)O)n3cc(C(N)CO)nn3)CC2)nc(N2CCN(C(=O)[C@H](CCCCN)n3cc(C(N)[C@H](C)CC)nn3)CC2)n1 (stereo partly specified),nt,nt,98.8,nt,nt,0.84,i

Screening results from PubChem.
